# rRNA inh HTS – reduced GFP signal of wild-type E. coli, primary screen, bacterial rRNA inhibitor project, GFP/RFP fluorescence, OD600, single point. E. coli WT GFP vs humanized-ribosome RFP mutants, 24 h; hits give low values; DMSO median 0, no signal -100. GFP signal change (wild-type ribosome), % (concentration not given with the values). actives 1.6% (n = 350,000). AID 720706, 2013;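 active = significant combined selectivity score with lowered wild-type GFP, culture density cut under 30%, mutant RFP and density less affected; inactive = any of these conditions unmet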; note: one replicate is shown; some compounds called inactive have numbers as strong as hits
# AF4-AF9 inh – inhibitors of AF4 peptide binding to AF9, primary screen, biochemical, AlphaScreen, biotin-AF4 peptide, FLAG-AF9, single point; Protein AF-9 (Homo sapiens), P42568; inhibition, % at 10 µM; actives 0.47% (n = 350,000); AID 651704, 2012;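 active = every replicate reaching a set inhibition limit, whatever the replicate mean, cut at about 25% in these data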;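 note: 0% = plate neutral control median and 100% = total signal loss; the record names both 10 and 1 µM as test concentration; the first replicate is given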
# Target sequence (P42568 whole entry, looked up): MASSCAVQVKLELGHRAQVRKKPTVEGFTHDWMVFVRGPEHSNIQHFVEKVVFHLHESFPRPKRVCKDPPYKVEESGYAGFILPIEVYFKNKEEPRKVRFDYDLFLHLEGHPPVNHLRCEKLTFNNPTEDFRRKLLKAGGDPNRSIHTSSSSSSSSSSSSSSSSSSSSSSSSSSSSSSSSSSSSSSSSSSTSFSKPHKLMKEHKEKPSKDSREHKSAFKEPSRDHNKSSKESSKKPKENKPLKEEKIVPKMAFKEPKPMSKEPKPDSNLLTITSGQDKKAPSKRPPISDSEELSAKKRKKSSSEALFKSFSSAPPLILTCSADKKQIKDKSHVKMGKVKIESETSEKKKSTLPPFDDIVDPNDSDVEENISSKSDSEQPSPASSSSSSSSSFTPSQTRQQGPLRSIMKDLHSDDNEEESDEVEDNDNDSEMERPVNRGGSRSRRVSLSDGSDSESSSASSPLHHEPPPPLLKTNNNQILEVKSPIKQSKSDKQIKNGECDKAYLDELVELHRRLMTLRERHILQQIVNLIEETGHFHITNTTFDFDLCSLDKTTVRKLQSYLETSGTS
# rRNA inh HTS OD600 – further read-out of rRNA inh HTS, marked with its call; OD600 change, %; measured here: OD600 growth;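 optical density of the mix in the first replicate; 0 = DMSO median and -100 = no signal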
# rRNA inh HTS RFP – second read-out of rRNA inh HTS, no call of its own (marks repeat the call); RFP signal change, %; measured here: RFP humanized mutant strains;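 first replicate; 0 = DMSO median and -100 = no signal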
# Active calls of the source: *; · = not tested or not shown. The list is partial. The share of hits here may be higher or lower than overall.
AF4-AF9 inh,rRNA inh HTS OD600,rRNA inh HTS,rRNA inh HTS RFP,structure
21,·,·,·,COc1ccccc1NC(=O)N1CCCCN2[C@@H](CO)[C@H](c3ccc(C#CC4CC4)cc3)[C@@H]2C1
1.4,·,·,·,COCC1=C2[C@@H](c3ccccc3)OB(O)C[C@@H]2[C@@H]2C(=O)N(Cc3ccccc3)C(=O)[C@@H]2C1
1.4,·,·,·,CC(=O)N[C@@H]1C[C@@H]2O[C@H](CO)CC[C@@H]2O[C@@H]1CCc1ccc(-c2ccc(F)cc2)cc1
-0.9,·,·,·,COc1ccccc1NC(=O)NC[C@@H]1CC[C@@H]2[C@@H](CN2S(=O)(=O)c2ccc(Cl)cc2)O1
-1.7,·,·,·,Cc1ccc(S(=O)(=O)N2C[C@@H]3O[C@@H](CNS(=O)(=O)c4ccccc4C)CC[C@@H]32)cc1
-3.0,·,·,·,O=C(NC[C@H]1CC[C@H]2[C@H](CN2C(=O)CN2CCOCC2)O1)NC1CCCCC1
-0.7,·,·,·,COC(=O)C(CC#Cc1ccc2c(c1)[C@]1(C(=O)N2)[C@H](c2ccc(O)cc2)N2[C@H](c3ccccc3)[C@H](c3ccccc3)OC(=O)[C@H]2[C@@H]1C(=O)N1CCCCCCC1)C(=O)OC
1.2,·,·,·,O=C(NC[C@@H]1CC[C@H]2[C@H](CN2C(=O)C2CCOCC2)O1)c1cccnc1
2.9,·,·,·,COCC(=O)NC[C@@H]1CC[C@@H]2[C@@H](CN2S(=O)(=O)c2ccccc2[N+](=O)[O-])O1
11,·,·,·,COc1ccccc1NC(=O)N1CCCCN2[C@H](C1)[C@@H](c1ccc(C#CC3CC3)cc1)[C@@H]2CO

# The closing 2 entries of the section before open the next one:
AF4-AF9 inh,rRNA inh HTS OD600,rRNA inh HTS,rRNA inh HTS RFP,structure
2.9,·,·,·,COCC(=O)NC[C@@H]1CC[C@@H]2[C@@H](CN2S(=O)(=O)c2ccccc2[N+](=O)[O-])O1
11,·,·,·,COc1ccccc1NC(=O)N1CCCCN2[C@H](C1)[C@@H](c1ccc(C#CC3CC3)cc1)[C@@H]2CO
1.9,·,·,·,COc1cccc(C#Cc2ccc3c(c2)[C@H]2[C@H](CCN2C(=O)c2ccc4c(c2)OCO4)[C@@H](CO)N3)c1
-2.8,·,·,·,O=C(NC[C@@H]1CC[C@@H]2[C@@H](CN2C(=O)C2CCOCC2)O1)c1cccnc1
-5.2,·,·,·,O=C(CC1CC1)N[C@@H]1C[C@@H]2O[C@@H](CO)CC[C@@H]2O[C@@H]1CCc1ccc(C#Cc2ccccc2)cc1
-2.4,·,·,·,CC(C)(O)c1cn([C@@H]2C[C@@H]3O[C@@H](CO)CC[C@@H]3O[C@@H]2CCc2ccc(-c3ccncc3)cc2)nn1
-1.0,·,·,·,O=C(NC[C@H]1CC[C@@H]2[C@@H](CN2Cc2ccc(Oc3ccccc3)cc2)O1)C1CCOCC1
0.8,·,·,·,COc1ccc([Si](C)(C)[C@@H]2[C@@H](CC(=O)N3Cc4ccccc4C[C@H]3CO)O[C@]3(C(=O)N(C)c4c(Br)cc(C)cc43)[C@H]2C)cc1
-3.8,·,·,·,O=C(NC[C@@H]1CC[C@@H]2[C@@H](CN2Cc2ccc(Oc3ccccc3)cc2)O1)C1CCOCC1
14,·,·,·,COc1ccccc1-c1ccc2c(c1)[C@H]1[C@H](CCN1C(=O)C1CCCC1)[C@H](CO)N2
3.8,·,·,·,CN(C)CC(=O)N[C@H]1C[C@@H]2O[C@H](CO)CC[C@@H]2O[C@@H]1CCc1ccc(-c2ccc(F)cc2)cc1
0.8,·,·,·,CC(C)NC(=O)N[C@@H]1C[C@@H]2O[C@@H](CO)CC[C@@H]2O[C@@H]1CCc1ccc(-c2ccccc2F)cc1
2.7,·,·,·,O=C1CN(S(=O)(=O)Cc2ccccc2)C[C@@H]2[C@@H](c3ccc(C#CCC4CCCC4)cc3)[C@@H](CO)N12
0.6,·,·,·,C[C@@H]1CN([C@@H](C)CO)C(=O)c2cc(NS(C)(=O)=O)ccc2O[C@@H](C)CCCCO[C@@H]1CN(C)C(=O)CCCN(C)C
-1.2,·,·,·,O=S(=O)(NC[C@H]1CC[C@@H]2[C@@H](CN2Cc2cccc(-c3ccccn3)c2)O1)c1ccccc1
0.6,·,·,·,Cc1cccc(S(=O)(=O)NC[C@H]2CC[C@@H]3NC[C@@H]3O2)c1
-2.9,·,·,·,CCC(=O)N1[C@H](C#N)[C@@H](c2ccccc2-c2ccccc2)[C@H]1CO
-4.2,·,·,·,O=C(NC[C@H]1CC[C@H]2[C@H](CN2Cc2cccc(Cl)c2)O1)C1CCOCC1
0.6,·,·,·,C=CCNC(=O)[C@H]1[C@@H]2C(=O)O[C@@H](c3ccccc3)[C@@H](c3ccccc3)N2[C@@H](c2ccccc2OCCO)[C@]12C(=O)N(C(=O)OCCOC)c1ccc(C#Cc3ccc(OC)cc3)cc12
-1.6,·,·,·,CN1C(=O)c2cc(NC(=O)Nc3ccc(Cl)cc3)ccc2OC[C@H]2O[C@@H](CC(=O)O)CC[C@@H]21
-4.3,·,·,·,O=C(NC[C@@H]1CC[C@@H]2[C@@H](CN2Cc2cccc(Cl)c2)O1)C1CCC1
2.9,·,·,·,CC(C)CCCCCCCCc1cccc(O)c1C(=O)O
2.5,·,·,·,O=C(c1ccccc1F)N1C[C@H]2O[C@@H](CNS(=O)(=O)c3ccccc3)CC[C@H]21
-4.4,·,·,·,O=C(C1CC1)N1CCCCN2[C@@H](CO)[C@@H](c3ccc(-c4ccncc4)cc3)[C@@H]2C1
-1.4,·,·,·,OC[C@H]1CC[C@@H]2O[C@H](CCc3ccc(-c4ccc(F)cc4)cc3)[C@H](n3cc(C4CC4)nn3)C[C@@H]2O1
-2.3,·,·,·,O=C(NC[C@@H]1CC[C@H]2[C@H](CN2S(=O)(=O)c2ccccc2)O1)NC1CCCCC1
·,10,9,-2.1,COCC(=O)N1CCC2(CC1)CN(Cc1cccc(OC)c1)[C@@H](CO)c1c2c2ccc(OC)cc2n1C
·,-1,-2,0.8,O=C1N[C@@H](c2ccccc2)COCc2cn(nn2)CC[C@H]1Cc1ccc(-c2ccccc2)cc1
·,4,1,2.8,O=C1N[C@H](Cc2ccccc2)COCc2cn(nn2)CC[C@@H]1Cc1cccc(Cl)c1
·,-4,-5,2.3,COc1cccc(NC(=O)N(C)C[C@H]2Oc3ncc(C#Cc4ccncc4)cc3C(=O)N([C@H](C)CO)C[C@@H]2C)c1
·,-5,1,2.6,CO[C@H]1CC[C@@H]2CCN(C)C(=O)C[C@H](c3ccccc3)CN(C)C(=O)c3cc(C#N)ccc3OC[C@@H]1O2
·,-9,3,1.4,CC(=O)N(C)C[C@H]1[C@H](c2ccc(C3=CCCC3)cc2)[C@H](CO)N1CC1CC1
·,-6,-3,0.5,C[C@H]1CN([C@@H](C)CO)C(=O)c2cc(NS(C)(=O)=O)ccc2O[C@H]1CN(C)S(=O)(=O)c1ccc(Cl)cc1
·,-1,2,0.2,C[C@@H]1CN([C@@H](C)CO)C(=O)Cc2cc(NS(=O)(=O)c3ccccc3)ccc2O[C@H]1CN(C)C(=O)Nc1ccc2c(c1)OCO2
·,5,3,-1.6,CC(C)NC(=O)Nc1ccc2c(c1)C(=O)N([C@H](C)CO)C[C@H](C)[C@H](CN(C)CC1CC1)OCCCC[C@H](C)O2
·,4,1,-1.8,Cc1noc(C)c1NC(=O)N(C)C[C@H]1Oc2c(NC(=O)Nc3ccccc3)cccc2C(=O)N([C@@H](C)CO)C[C@@H]1C
·,-4,-5,-0.6,CC(C)[C@@H]1C(=O)N[C@@H](c2ccc(F)cc2)CC=CC[C@H](C)Oc2ccccc2C(=O)N1C (mixture of isomers)
·,6,1,-1.7,CO[C@H]1CN(C)C(=O)c2cc(NC(=O)c3ccc(F)cc3)ccc2OC[C@@H](C)N(C(=O)CC2CC2)C[C@@H]1C
·,2,-2,0.9,C[C@H](CO)N1C[C@H](C)[C@@H](CN(C)C(=O)CCC(F)(F)F)OCc2ccccc2-c2ccccc2C1=O
·,-11,0,0.8,CC(C)NC(=O)Nc1ccc2c(c1)CC(=O)N([C@@H](C)CO)C[C@H](C)[C@@H](CN(C)S(=O)(=O)c1ccc(F)cc1)O2
·,5,0,-0.5,CO[C@H]1CN(C)C(=O)c2cc(NC(=O)c3cccc(F)c3)ccc2OC[C@H](C)N(C(C)=O)C[C@@H]1C
·,-9,-4,9.8,C[C@H](CO)N1C[C@H](C)[C@H](CN(C)Cc2ccc3c(c2)OCO3)Oc2ccc(NS(=O)(=O)c3ccc(F)cc3)cc2CC1=O

# Compound profiles, as listed above. Screens in order: AF4-AF9 inh, rRNA inh HTS OD600, rRNA inh HTS, rRNA inh HTS RFP
# C[C@H](CO)N1C[C@H](C)[C@H](CN(C)Cc2ccc3c(c2)OCO3)Oc2ccc(NS(=O)(=O)c3ccc(F)cc3)cc2CC1=O in the list: ·, -9, -4, 9.8
# CO[C@H]1CN(C)C(=O)c2cc(NC(=O)c3cccc(F)c3)ccc2OC[C@H](C)N(C(C)=O)C[C@@H]1C in the list: ·, 5, 0, -0.5
# CO[C@H]1CN(C)C(=O)c2cc(NC(=O)c3ccc(F)cc3)ccc2OC[C@@H](C)N(C(=O)CC2CC2)C[C@@H]1C in the list: ·, 6, 1, -1.7
# C[C@H](CO)N1C[C@H](C)[C@@H](CN(C)C(=O)CCC(F)(F)F)OCc2ccccc2-c2ccccc2C1=O in the list: ·, 2, -2, 0.9
# C[C@H]1CN([C@@H](C)CO)C(=O)c2cc(NS(C)(=O)=O)ccc2O[C@H]1CN(C)S(=O)(=O)c1ccc(Cl)cc1 in the list: ·, -6, -3, 0.5

# (list continues)
AF4-AF9 inh,rRNA inh HTS OD600,rRNA inh HTS,rRNA inh HTS RFP,structure
·,0,0,1.0,C/C=C/c1ccc([C@H]2[C@@H](CNC(C)C)N(C(=O)c3ccccn3)[C@H]2CO)cc1
·,-3,-1,-0.2,C[C@@H]1CN([C@H](C)CO)C(=O)c2cccc(NS(=O)(=O)c3cccs3)c2O[C@@H]1CN(C)C(=O)Nc1ccccc1
·,0,1,0.3,C[C@H]1CN([C@@H](C)CO)C(=O)CCCn2cc(nn2)CO[C@H]1CN(C)C(=O)Nc1ccccc1
·,-6,-2,-2.8,CCCN1C[C@H](C)[C@H](OC)CN(C)C(=O)c2cc(NC(=O)c3cccc(OC)c3)ccc2OC[C@@H]1C
·,11,4,-2.8,CCC(=O)N1CC2(C1)CN(C(=O)CN1CCOCC1)[C@@H](CO)c1[nH]c3cc(OC)ccc3c12
·,2,-1,-3.9,C[C@H](CO)N1C[C@H](C)[C@@H](CN(C)Cc2ccc(-c3ccccc3)cc2)Oc2c(NC(=O)Nc3ccccc3)cccc2C1=O
·,-21,0,11,Cc1ccc(S(=O)(=O)Nc2ccc3c(c2)C(=O)N([C@H](C)CO)C[C@H](C)[C@H](CN(C)Cc2ccc(C(F)(F)F)cc2)O3)cc1
·,-7,2,2.0,C[C@H](CO)N1C[C@H](C)[C@@H](CN(C)Cc2ccc(Cl)c(Cl)c2)Oc2ccc(NC(=O)Nc3ccccc3)cc2C1=O
·,6,-2,1.3,CC(=O)N1[C@H](CO)[C@@H](c2ccccc2)C12CN(Cc1ccc(Cl)cc1)C2
·,4,3,-3.8,Cc1ccc(CN(C)C[C@H]2OCc3cnnn3CCCC(=O)N([C@@H](C)CO)C[C@H]2C)cc1
·,-1,1,-1.5,COC(=O)c1ccc(CN2CC(=O)N3[C@H](CO)[C@@H](c4ccc(-c5ccccc5)cc4)[C@H]3C2)cc1
·,8,0,-0.7,CC(C)C#Cc1ccc([C@H]2[C@H]3CN(S(=O)(=O)Cc4ccccc4)CCCCN3[C@H]2CO)cc1
·,3,0,-3.9,C/C=C/c1ccc([C@@H]2[C@@H](CO)N(S(C)(=O)=O)[C@H]2CN(C)C(=O)CC)cc1
·,-9,1,-0.9,C[C@H](CO)N1C[C@H](C)[C@H](CN(C)C(=O)C2CC2)Oc2cc(-c3ccc(C(=O)N(C)C)cc3)ccc2S1(=O)=O
·,-16,-7,1.4,CC(C)CC#Cc1ccc([C@H]2[C@@H](CO)N3C(=O)CN(S(C)(=O)=O)C[C@@H]23)cc1
·,8,2,-1.8,Cc1noc(C)c1S(=O)(=O)Nc1ccc2c(c1)C(=O)N([C@@H](C)CO)C[C@@H](C)[C@H](CN(C)C(=O)Nc1ccccc1)O2
·,-2,-2,4.2,CCCNC(=O)Nc1ccc2c(c1)C(=O)N(C)C[C@H](OC)[C@H](C)CN(Cc1ccccc1)[C@@H](C)CO2
·,5,-2,-2.5,CCS(=O)(=O)N1CC2(CN(Cc3cccnc3)[C@H](CO)c3c2c2ccc(OC)cc2n3C)C1
·,1,0,-0.8,CCCC(=O)Nc1ccc2c(c1)C(=O)N(C)C[C@H](OC)[C@H](C)CN(C(=O)CC)[C@H](C)CO2
·,5,-3,5.2,C[C@H]1CN([C@@H](C)CO)C(=O)Cc2cc(N(C)C)ccc2O[C@H]1CN(C)Cc1ccc(Cl)c(Cl)c1
·,1,-1,0.1,C[C@H](CO)N1C[C@H](C)[C@@H](CN(C)C(=O)NC2CCCCC2)Oc2cc(C#Cc3cccc(F)c3)ccc2S1(=O)=O
·,11,6,-4.9,C[C@@H]1CCCCO[C@H](CN(C)C(=O)Nc2ccccc2)[C@H](C)CN([C@H](C)CO)C(=O)c2cc(NS(=O)(=O)c3ccc(Cl)cc3)ccc2O1

# Compound activity (PubChem BioAssay)
